Screening data from PubChem BioAssay.
TRPV1 potentiator: HTS Assay for Compounds that Act as Potentiators of the Vanilloid Receptor 1 | Transient receptor potential cation channel subfamily V member 1 (Homo sapiens), Q8NER1 | potentiation, % at 8.33 µM | hit rate 0.02% among 320,000 | TRPV1-expressing cells, Fluo-8 calcium influx, capsaicin EC20 potentiation; host cell line not named in the record; control for the full effect not named in the record; active means potentiation above 80%; inconclusive means 30% to 80%; inactive means below 30%; also: 0% is about no effect
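Fluo-8 calcium influx in TRPV1-expressing cells, kinetic read (ex 480/em 520 nm). Compound added and read 3 min for agonist activity, followed by capsaicin at EC20 final and 2 min further read for enhancement.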
Menin MLL FP FL: qHTS Assay for Inhibitors Targeting the Menin-MLL Interaction in MLL Related Leukemias: Competition With Fluorescein Labeled MLL-derived Peptide. FP activity change, % at 61.4 µM. Fluorescence polarization, fluorescein-MLL peptide displacement from menin. 290,000 tested, under 10 active. AID 1766, 2009; inconclusive = falling polarisation curve, or a change in total fluorescence; inactive = total fluorescence flat and polarisation flat or rising; no compound was filed as active; the % refers to the polarisation; negative = inhibition;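 also: % of control where 0% means no effect; inhibitors lower the polarisation; unlabelled MLL peptide was the positive control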
Sfp inh: qHTS Assay for Inhibitors of Bacillus subtilis Sfp phosphopantetheinyl transferase (PPTase) | 4'-phosphopantetheinyl transferase ffp (Bacillus subtilis), Q9F4F7 | Biochemical Sfp PPTase activity, qHTS | Potency, µM, for inactives: max response, negative = inhibition, hits mostly inhibitors | hit rate 3.5% among 310,000 | AID 1490, 2009; active = well fitted inhibition curve with a large enough effect; inconclusive = small, poorly fitted or top-dose-only effect, or another doubt; inactive = no such curve, though single readings can be large or run the other way;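 also: the enzyme is Sfp with the accession as filed and its product quenches rhodamine fluorescence; potency is read from the fitted curve at half-maximal effect; 0% = enzyme reaction without inhibitor and -100% = no enzyme wells; top concentration of the series not given in the record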
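Sfp 15 nM + cpd, 15 min RT; start w/ rhodamine-CoA 5 uM, BHQ-2-YbbR 12.5 uM (final); 50 mM Hepes pH 7.6, 10 mM MgCl2, 0.01% NP-40, 0.01% BSA; read 525/598 nm at 0 and 30 min.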
gsp antag: qHTS for Antagonists of gsp, the Etiologic Mutation Responsible for Fibrous Dysplasia/McCune-Albright Syndrome: qHTS. gsp-mutant cells, cAMP HTRF, 30 min; control for the full effect not named in the record. Potency, µM (highest dose often 76.9 µM), without a hit: at the highest dose activity change, negative = inhibition, usual class: inhibitors. hit rate 0.4% among 340,000; active = falling curve of any shape with a large fitted effect; inconclusive = falling curve, mostly with a smaller effect; inactive = flat or rising curve; cell line not stated here;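 also: intracellular cAMP measured with PDE inhibitor Ro 20-1724 present during compound exposure; potency is read from the fitted curve at half-maximal effect; % is scaled to controls: 0 for no effect and ±100 for the full control effect; nearly all actives have a fitted effect of over 65% in size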
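HTRF cAMP measurement after 30 min RT detection following 30 min, 37C compound treatment alongside […] (added as 300 uM solution) in G418-selected cells seeded at 2000/well and grown 16–24 h.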
ClpP mod: qHTS Assay for Activators of ClpP; hit rate 1.9% among 340,000; purified B. subtilis ClpP, FRET peptide cleavage, 20 min; Potency, µM (series often up to 57.5 µM), inactives show at the top dose activity change, negative = active; ATP-dependent Clp protease proteolytic subunit (Bacillus subtilis (strain 168)), P80244; active = well fitted falling curve with a large enough effect; inconclusive = small, poorly fitted or top-dose-only effect; inactive = no such curve, though single readings can be large or run the other way; also: potency is read from the fitted curve at half-maximal effect; the source files actives as falling curves though it sought activators and does not explain the sign; nearly all actives have a fitted effect of over 65% in size; many hits overshoot -100%
Target sequence (P80244 whole entry, looked up): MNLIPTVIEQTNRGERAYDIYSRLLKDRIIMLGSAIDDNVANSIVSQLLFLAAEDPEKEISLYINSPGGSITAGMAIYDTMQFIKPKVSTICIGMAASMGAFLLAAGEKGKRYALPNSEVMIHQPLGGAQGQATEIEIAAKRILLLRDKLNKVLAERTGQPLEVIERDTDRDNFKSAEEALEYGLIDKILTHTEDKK
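Purified B. subtilis ClpP, 10 microg/mL final in Tris/HCl pH8 with KCl, BSA, glycerol and Tween-20, cleaved an Abz/nitrotyrosine-quenched decapeptide. Fluorescence (ex 320, em 430) was read at 0 and 20 min at room temperature. Delta was normalized to 5.8 microM ADEP and DMSO/no-enzyme controls.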
gsp agonist: qHTS for Agonist of gsp, the Etiologic Mutation Responsible for Fibrous Dysplasia/McCune-Albright Syndrome: qHTS. gsp mutant cells, cAMP HTRF, 30 min; control for the full effect not named in the record. Potency, µM (titrated, usually from 76.9 µM), for the others: at the top dose activation (cAMP increase), most hits filed as activators. hit rate 0.13% among 340,000. AID 624287, 2012; active = well fitted activation curve with a large enough effect; inconclusive = small, poorly fitted or top-dose-only effect, or another doubt; inactive = no such curve, though single readings can be large or run the other way; cell line not stated here;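 also: phosphodiesterase inhibitor Ro 20-1724 added with compounds to block cAMP breakdown; potency is read from the fitted curve at half-maximal effect; nearly all actives have a fitted effect of over 60% in size; about a fifth of the inactives were tested at one dose only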
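Cells stably selected in G418 were plated at 2000/well, grown 16-24 hr, then given compounds in DMSO with the PDE inhibitor […] (300 uM solution added) for 30 min at 37C; cAMP was read by HTRF.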
D2 potentiator: Beta-Arrestin HTS for Positive Allosteric Modulators of the Human D2 Dopamine Receptor: Potentiators; hit rate 0.23% among 360,000; D(2) dopamine receptor (Homo sapiens), P14416; DiscoveRx D2 beta-arrestin cells, luminescence, 90 min; 100% = 57 uM dopamine signal; potentiation, % (no concentration beside the values); AID 624464, 2012; active = potentiation of 50% or more; inconclusive = 30% to 50%; inactive = 30% or less;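 also: compound concentration not given in the record; tested on top of an EC20 dose of dopamine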
Target sequence (P14416 whole entry, looked up): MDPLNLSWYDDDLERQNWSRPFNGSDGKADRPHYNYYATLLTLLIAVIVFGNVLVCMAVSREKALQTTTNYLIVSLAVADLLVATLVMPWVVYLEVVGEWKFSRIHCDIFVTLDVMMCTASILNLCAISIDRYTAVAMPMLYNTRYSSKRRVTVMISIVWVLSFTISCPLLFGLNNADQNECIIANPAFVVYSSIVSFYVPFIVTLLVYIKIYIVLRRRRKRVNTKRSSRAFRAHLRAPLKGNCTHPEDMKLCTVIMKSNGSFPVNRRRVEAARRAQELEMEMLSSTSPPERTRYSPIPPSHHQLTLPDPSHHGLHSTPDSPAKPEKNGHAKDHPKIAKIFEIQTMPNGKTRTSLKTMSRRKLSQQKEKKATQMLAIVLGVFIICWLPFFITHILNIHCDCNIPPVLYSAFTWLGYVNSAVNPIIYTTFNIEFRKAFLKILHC
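PathHunter D2 cells, attached overnight at 37 deg C, received compound in DMSO plus dopamine at EC20 (50 nM final) for 90 min at 37 deg C. Beta-arrestin recruitment was read as luminescence after 1 h with detection reagent at ambient temperature.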
* hit, by the source's call; [ ] = another dose, or the depositor's remark. Rows are unselected. Share with any hit: about 5.1%.

`COc1ccc(S(=O)(=O)N(C)CC(=O)NC2CCCC2)cc1Cl` gave TRPV1 potentiator 1, Menin MLL FP FL -3.4, Sfp inh 5%, gsp antag 8%, ClpP mod -2.2%, gsp agonist -37% and D2 potentiator -3.
`C#CC(C)(C)NC(=O)c1ccccc1OC` gave TRPV1 potentiator 1, Menin MLL FP FL -1.7, Sfp inh 15%, gsp antag 15%, ClpP mod -1.0%, gsp agonist -41%[inhibitor] and D2 potentiator 5.
COc1ccc(CCNC(=S)N2CCN(S(=O)(=O)c3ccc(Cl)cc3)CC2)cc1 was read as TRPV1 potentiator 4, Sfp inh 10%, gsp antag 19%, ClpP mod 1.4%, gsp agonist -2% and D2 potentiator 2.
For Cc1ccc(NC(=S)N(CCN(C)C)Cc2cccs2)cc1 the results were TRPV1 potentiator 5, Menin MLL FP FL -0.8, Sfp inh 9%, gsp antag 8%, ClpP mod -0.9%, gsp agonist -39%[inhibitor] and D2 potentiator -25.
Screening CCN(c1ccc(NC(=O)c2cccc(S(=O)(=O)N3CCN(C)CC3)c2)cc1)C(C)C returned TRPV1 potentiator 22, Sfp inh -14%, gsp antag -32%, ClpP mod -2.0%, gsp agonist 8% and D2 potentiator -33.
`O=C(COC(=O)c1ccc(Br)c(S(=O)(=O)N2CCOCC2)c1)NCCc1ccccc1` gave gsp antag 0%, ClpP mod -0.4%, gsp agonist -13%[15.4 µM] and D2 potentiator -9.
`CC(NC(=O)NC1CCCCC1)C(c1cccs1)N1CCN(Cc2ccccc2)CC1` (stereo unspecified) gave TRPV1 potentiator 10, Menin MLL FP FL 1.8, Sfp inh 11%, gsp antag 6%, ClpP mod -0.5%, gsp agonist -52%[inhibitor] and D2 potentiator -8.
Cc1ccc(OCC(=O)Nc2cc(-c3nn4c(C)nnc4s3)ccc2C)cc1 was read as TRPV1 potentiator 11, Menin MLL FP FL -3.5, Sfp inh 0%, gsp antag -3%, ClpP mod 1.7%, gsp agonist -32%[inhibitor] and D2 potentiator 1.
`O=C(Cc1cccc2ccccc12)N/N=C/c1ccncc1` gave TRPV1 potentiator -23, Menin MLL FP FL 2.3, Sfp inh 0%, gsp antag -29%, ClpP mod -0.1%, gsp agonist 33%[15.4 µM] and D2 potentiator -7.
`COc1ccccc1C1OC(c2cccc([N+](=O)[O-])c2)=NN1C(C)=O` (stereo unspecified) gave TRPV1 potentiator 7, Menin MLL FP FL -3.3, Sfp inh 1%, gsp antag -12%, gsp agonist -7%[15.4 µM] and D2 potentiator -6.
For CN1CCCc2cc3c(C(F)(F)F)cc(=O)oc3nc21 the results were TRPV1 potentiator -18, Menin MLL FP FL inconclusive, Sfp inh 5%, gsp antag 13%, ClpP mod inconclusive, gsp agonist inconclusive and D2 potentiator -9.
CN(C)c1ccc(N=C/C=C2/N(C)c3ccccc3C2(C)C)cc1 was read as TRPV1 potentiator -2, Menin MLL FP FL inconclusive, Sfp inh -27%, gsp antag -31%, ClpP mod -0.3%, gsp agonist inconclusive and D2 potentiator -6.
O=C(CSC1CS(=O)(=O)c2cc([N+](=O)[O-])ccc21)NNC(=O)c1ccccc1 (stereo unspecified) was read as TRPV1 potentiator 17, Menin MLL FP FL 22, Sfp inh -1%, gsp antag 0%, gsp agonist 19%[15.4 µM] and D2 potentiator 9.
For COc1cc(/C=N\NS(=O)(=O)c2ccccc2)cc(OC)c1OC the results were TRPV1 potentiator 24, Menin MLL FP FL 3.3, Sfp inh 15%, gsp antag 4%, ClpP mod -1.4%, gsp agonist -5% and D2 potentiator 2.
For O=[N+]([O-])c1cc(/C=N/O)ccc1SCc1ccccc1Cl the results were TRPV1 potentiator -1, Menin MLL FP FL -1.2, Sfp inh -16%, gsp antag -30%, ClpP mod -2.7%, gsp agonist -10% and D2 potentiator -5.
`O=C(NCCc1ccc2c(c1)OCCO2)c1cc(S(=O)(=O)N2CCCC2)ccc1Cl` gave TRPV1 potentiator -2, gsp antag -4%, ClpP mod 1.0%, gsp agonist 2% and D2 potentiator -23.
`O=[N+]([O-])c1ccccc1S(=O)(=O)NCc1ccco1` gave TRPV1 potentiator -5, Menin MLL FP FL -4.8, Sfp inh 13%, gsp antag 9%, gsp agonist 0% and D2 potentiator 1.
`CN(C)c1ccc(C2OC(=O)C3(CCCC3)C(=O)C2(C)C)cc1` (stereo unspecified) gave TRPV1 potentiator 9, Menin MLL FP FL -0.5, Sfp inh 7%, gsp antag 10%, ClpP mod -2.9%, gsp agonist 7% and D2 potentiator -2.
`Cc1ccc(NC(=S)NNC(=O)CCn2cc(C)cn2)cc1` gave TRPV1 potentiator 7, Menin MLL FP FL 5.6, Sfp inh 5%, gsp antag 4%, ClpP mod -0.6%, gsp agonist inconclusive and D2 potentiator -19.
Screening O=[N+]([O-])c1cccnc1Oc1cc(Cl)c(Cl)cc1Cl returned ClpP mod -1.9%, gsp agonist 13% and D2 potentiator -2.
For CCCN(C(=O)CSc1nnnn1-c1ccccc1OC)C1CCS(=O)(=O)C1 (stereo unspecified) the results were TRPV1 potentiator -3, Menin MLL FP FL -2.2, Sfp inh 14%, gsp antag -3%, ClpP mod -0.8%, gsp agonist -14% and D2 potentiator 15.
`COc1ccc(OC)c(NC(=O)CSc2nnc3ccc(-c4ccncc4)nn23)c1` gave TRPV1 potentiator 8, Menin MLL FP FL 1.4, Sfp inh -18%, gsp antag -7%, gsp agonist 2%[15.4 µM] and D2 potentiator 4.
`O=C(O)c1cc(-c2ccccn2)n[nH]1` gave TRPV1 potentiator -1, Menin MLL FP FL 0.0, Sfp inh inconclusive, gsp antag -6%, ClpP mod -1.4%, gsp agonist -5% and D2 potentiator -8.
`COc1cc2cc(CCCO)oc(=O)c2cc1OC` gave gsp antag 11%, ClpP mod -14% and D2 potentiator -3.
Screening Cc1ccc(S(=O)(=O)N(C)c2ccc(C(=O)Nc3ccc(C)cn3)cc2)cc1 returned TRPV1 potentiator -6, gsp antag -20%, gsp agonist -9%[15.4 µM] and D2 potentiator 5.
For C1=C(c2sc3ccccc3c2-c2ccc(OCCN3CCOCC3)cc2)CCCC1 the results were gsp antag -4%, ClpP mod -5.5% and D2 potentiator 1.
C=CCn1c(N2CCCCCC2)nc2c1c(=O)n(C)c(=O)n2C was read as TRPV1 potentiator 2, Menin MLL FP FL -1.0, Sfp inh 10%, gsp antag -25%, ClpP mod 1.0%, gsp agonist -13% and D2 potentiator 4.
`O=C(OCC(O)COC(=O)c1cccnc1)c1cccnc1` gave TRPV1 potentiator 3, Menin MLL FP FL 0.4, Sfp inh 17%, gsp antag 7%, ClpP mod -0.2%, gsp agonist -44%[inhibitor] and D2 potentiator 9.
CN(C(=O)c1cccc(NC(=O)Cc2ccc(NC(=O)C3CCCN(C(=O)C4CC4)C3)cc2)c1)C1CCCCC1 (stereo unspecified) was read as gsp antag 6%, ClpP mod -1.0% and D2 potentiator -4.
`Cc1nc(SCC(N)=O)c([N+](=O)[O-])[nH]1` gave TRPV1 potentiator -2, Menin MLL FP FL 0.4, Sfp inh -19%, gsp antag -3%, ClpP mod 0.7%, gsp agonist -1%[15.4 µM] and D2 potentiator -8.
COC(=O)c1ccc(CNC(=O)COC(=O)COc2ccc(OC)cc2)cc1 was read as TRPV1 potentiator 12, Menin MLL FP FL 1.9, Sfp inh 16%, gsp antag 4%, gsp agonist -1%[15.4 µM] and D2 potentiator -3.
For CN1CCN(C(=O)c2cc3c(C(F)(F)F)nn(C)c3s2)CC1 the results were TRPV1 potentiator 0, Menin MLL FP FL 1.3, Sfp inh 13%, gsp antag -2%, ClpP mod -2.1%, gsp agonist 19% and D2 potentiator -20.
Screening CCOc1ccc(OCC)c(NC(=O)CN2CCC(NC(=O)c3cccc(F)c3)CC2)c1 returned TRPV1 potentiator -8, Menin MLL FP FL 1.2, Sfp inh -13%, gsp antag -21%, ClpP mod -1.5%, gsp agonist 27% and D2 potentiator -2.
Screening CCOC(=O)c1sc(NS(=O)(=O)c2ccc(C)cc2)nc1C returned TRPV1 potentiator 21, Menin MLL FP FL 5.1, Sfp inh 2%, gsp antag inconclusive, ClpP mod 1.6%, gsp agonist 16% and D2 potentiator -8.
For Cc1ccccc1C(=O)N1CCC(C(=O)OCC(=O)Nc2cccc([N+](=O)[O-])c2C)CC1 the results were TRPV1 potentiator 1, gsp antag -12%, ClpP mod 0.0%, gsp agonist 17% and D2 potentiator -5.
Screening CCN1CCCC1CNS(=O)(=O)c1c(C)cc(C)cc1C (stereo unspecified) returned TRPV1 potentiator 1, Menin MLL FP FL -0.5, Sfp inh 2%, gsp antag 8%, ClpP mod -1.5%, gsp agonist -29%[15.4 µM] and D2 potentiator 1.
O=C(Nc1ccc(C(=O)N2CCOCC2)cc1)Nc1cccc(C(F)(F)F)c1 was read as gsp antag 4%, ClpP mod -1.1%, gsp agonist 0% and D2 potentiator -16.
O=C(CSc1nnc(Cc2ccccc2)o1)N1CCCc2ccccc21 was read as TRPV1 potentiator 2, Menin MLL FP FL 3.8, Sfp inh inconclusive, gsp antag -10%, ClpP mod -0.7%, gsp agonist inconclusive and D2 potentiator -9.
For Cc1ccc(-n2c3c(cc(C(=O)NC4CCSC4=O)c2=O)C(=O)CC(C)(C)C3)cc1 (stereo unspecified) the results were TRPV1 potentiator 6, Menin MLL FP FL 5.5, Sfp inh 3%, gsp antag -13%, ClpP mod -0.8%, gsp agonist inconclusive and D2 potentiator 2.
